# Screening data: PubChem, several laboratories
# ALR H2O2 inh: inhibitors of human ALR sulfhydryl oxidase, primary screen, biochemical, H2O2 detection, HRP-luminol luminescence, single point; inhibition, % (concentration not given with the values); actives 3.8% (n = 290,000); FAD-linked sulfhydryl oxidase ALR (Homo sapiens), P55789; purified ALR, DTT oxidation;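 active = mean and each replicate at 75% or more; inconclusive = only one of the two met; inactive = neither met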;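 note: stock transfer was 7.5 nL into about 7.5 µL; 0% = neutral wells and 100% = wells with inactivated enzyme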
# Target sequence (P55789 whole entry, looked up): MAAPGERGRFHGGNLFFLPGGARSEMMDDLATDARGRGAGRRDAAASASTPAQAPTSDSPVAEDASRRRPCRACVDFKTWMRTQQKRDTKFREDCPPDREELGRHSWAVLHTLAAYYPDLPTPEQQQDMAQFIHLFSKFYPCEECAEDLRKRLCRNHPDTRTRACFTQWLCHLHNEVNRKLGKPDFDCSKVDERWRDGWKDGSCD
# Beta cell apopt: inhibitors of cytokine-induced beta cell apoptosis, primary screen, luminescence; INS-1E cytokine-induced death, ATP luminescence, 48 h; percent of positive-control rescue, neutral wells zero; AID 435005, 2010; actives 0.8% (n = 300,000); protection from apoptosis, % (concentration not given with the values);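 active = all replicates at 75% or more, or half of them and the mean; inconclusive = half reach 75% but not the mean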;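 note: 0% = cytokine-treated negative control wells and 100% = positive control rescue; higher means more ATP so stronger rescue from cytokine killing; wells of about 40 µL received 100 nL stock; the first replicate is given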
# Bfl-1 A1 inh: caspase 3/7 activation in MEF A1-2A-BIM cells, primary screen, A1 inhibitor project, cell-based, luminescence, HTS | Caspase-Glo 3/7 luminescence, 3 h; percent of clofoctol response, vehicle zero | caspase activation, % (concentration not given with the values) | actives 0.066% (n = 330,000);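 active = over half of replicate activation scores above 10%, or exactly half above 10 with the replicate mean above 10; inconclusive = replicate mean below 10 yet half the replicates above 10; inactive = over half of replicates below 10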;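 note: wells of about 30 µL received 50 nL stock; many hits fall short of the cut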
# T cruzi repl: inhibitors of intracellular T. cruzi growth, primary screen, luminescence, NIH3T3 host cells; T. cruzi beta-gal in NIH3T3, 90 h; inhibition, % (concentration not given with the values); actives 1.4% (n = 300,000); AID 1885, 2009;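 active = mean inhibition across valid replicates above about 55%, limit read from the data; inconclusive = mean below that limit but half or more replicates reach it; inactive = mean below it, under half of replicates reach it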;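 note: signal also drops with host cell toxicity which is not excluded here; 0% = plate median of DMSO wells and 100% = zero luminescence signal; higher percent means less beta-gal luminescence so fewer parasites; stock transfer was 50 nL into about 50 µL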
# LANA-H2A inh: blockers of LANA interaction with H2A/H2B – biochemical, FP readout, HTS, primary screen. Protein LANA1 (Human herpesvirus 8 type P (isolate GK18)), Q9QR71. cell-free LANA-H2A/H2B peptide, fluorescence polarization. inhibition, % (concentration not given with the values). actives 0.6% (n = 320,000); in the data active = inhibition mostly above about 10%, no sharp cut-off; inactive = mostly below about 6.7%;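 note: stock transfer was 7.5 nL into about 10 µL; 0% = median of vehicle wells and 100% = median of positive control wells; one replicate is shown; the record names a cut of 25% in any replicate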
# Ecoli rRNA inh: reduced GFP signal of wild-type E. coli, primary screen, bacterial rRNA inhibitor project, GFP/RFP fluorescence, OD600, single point; E. coli WT GFP vs humanized-ribosome RFP mutants, 24 h; active compounds read low; DMSO median 0, no signal -100; actives 1.6% (n = 350,000); GFP signal change (wild-type ribosome), % (concentration not given with the values); AID 720706, 2013;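 active = significant combined selectivity score with lowered wild-type GFP, culture density cut under 30%, mutant RFP and density less affected; inactive = any of these conditions unmet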; note: one replicate is shown; some compounds called inactive have numbers as strong as hits
# Calb FLC: C. albicans growth inhibition with fluconazole, primary screen, CaCi-2 strain, Alamar Blue fluorescence; growth inhibition, % (concentration not given with the values); actives 0.57% (n = 300,000); C. albicans CaCi-2 (fluconazole-resistant clinical isolate) + fluconazole, 48 h;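 active = most replicates above 75%; inconclusive = exactly half above 75%; inactive = most below 75%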;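 note: all wells also contain fluconazole at 8 µg/ml as a sub-toxic cotreatment; 0% = median of DMSO wells and 100% = median of geldanamycin control wells; wells of about 8 µL received 7.5 nL stock; the first replicate is given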
# Beta2AR agonist: beta2AR agonists driving receptor internalization, primary screen, cell-based, FAP fluorogen, flow cytometry. response, % (no concentration beside the values). actives 0.43% (n = 340,000). Am2.2-beta2AR cells; reference of the scale not given here. Beta-2 adrenergic receptor (Homo sapiens), P07550;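 active = response above a set limit, near 3 SD of response in nonfluorescent compounds, cut at about 42% in these data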;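 note: stock transfer was 100 nL into about 11 µL; a reference agonist was the positive control; negative values mostly stem from fluorescent compounds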
# Target sequence (P07550 whole entry, looked up): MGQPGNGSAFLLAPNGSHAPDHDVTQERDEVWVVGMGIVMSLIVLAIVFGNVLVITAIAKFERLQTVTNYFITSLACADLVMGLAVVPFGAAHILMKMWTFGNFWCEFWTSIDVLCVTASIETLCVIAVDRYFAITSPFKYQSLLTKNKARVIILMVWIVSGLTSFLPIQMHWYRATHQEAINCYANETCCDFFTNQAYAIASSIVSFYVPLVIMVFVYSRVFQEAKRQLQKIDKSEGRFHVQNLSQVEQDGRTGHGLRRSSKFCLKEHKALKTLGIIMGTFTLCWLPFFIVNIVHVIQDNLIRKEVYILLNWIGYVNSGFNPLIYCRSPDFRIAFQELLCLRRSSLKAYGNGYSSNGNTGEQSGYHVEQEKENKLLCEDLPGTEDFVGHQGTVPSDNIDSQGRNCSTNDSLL
# Ecoli rRNA inh OD600: also measured in Ecoli rRNA inh; calls as there; OD600 change, %; measured here: OD600 growth;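 optical density of the mix in the first replicate; 0 = DMSO median and -100 = no signal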
# Ecoli rRNA inh RFP: also measured in Ecoli rRNA inh; calls as there; RFP signal change, %; measured here: RFP humanized mutant strains;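 first replicate; 0 = DMSO median and -100 = no signal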
# Numbers without * were called inactive; ? = inconclusive; . = no result given.
SMILES	ALR H2O2 inh	Beta cell apopt	Bfl-1 A1 inh	T cruzi repl	LANA-H2A inh	Ecoli rRNA inh	Ecoli rRNA inh OD600	Ecoli rRNA inh RFP	Calb FLC	Beta2AR agonist
COc1ccccc1C(=O)Nc1ccc(S(=O)(=O)N2CCc3ccccc32)cc1	-5	4	0.3	31	-0.1	2	0	1.2	3	3
O=C(Cc1ccc(Br)cc1)Nc1ccc(Cl)cc1	-12	-3	2.3	28	3.9	10	6	0.3	-2	-8
Cn1c(=O)c2c(SCC(=O)NC3CCCC3)nc(CC(C)(C)C)nc2n(C)c1=O	0	-3	1.6	8	2.6	8	11	-1.4	4	-2
O=C(Nc1ccc(Br)cn1)c1ccc(Br)s1	1	-5	-1.8	3	2.0	-1	-1	-3.2	-5	-22
CCCCOC(=O)CSc1nnc(-c2cc(OC)c(OC)c(OC)c2)o1	-12	-2	0.7	-5	2.5	.	.	.	-1	12
CN(C)c1ccc(/C=C/C(=O)c2ccccc2O)cc1	40	0	-5.0	-3	-2.6	18	15	51	-3	-17
Cn1c(=O)[nH]c(=O)c2c1nc(N1CCCC1)n2CCCSc1nnnn1-c1ccccc1	13	0	-0.2	2	-8.2	.	.	.	2	-12
Cc1ccc(N(Cc2ccc([N+](=O)[O-])cc2)C(=O)c2ccco2)cc1C	-1	0	-0.9	-20	-1.6	.	.	.	?	1
CCn1nc(NC(=O)COC)c2cc3cc(C)ccc3nc21	16	0	0.2	-4	-0.8	1	2	-0.8	-7	0
CC(=O)c1sc(NC(=O)C=C(C)C)nc1C	-9	1	.	-21	5.4	.	.	.	63	0

# Three records picked at random from those above:
SMILES	ALR H2O2 inh	Beta cell apopt	Bfl-1 A1 inh	T cruzi repl	LANA-H2A inh	Ecoli rRNA inh	Ecoli rRNA inh OD600	Ecoli rRNA inh RFP	Calb FLC	Beta2AR agonist
Cn1c(=O)[nH]c(=O)c2c1nc(N1CCCC1)n2CCCSc1nnnn1-c1ccccc1	13	0	-0.2	2	-8.2	.	.	.	2	-12
CCCCOC(=O)CSc1nnc(-c2cc(OC)c(OC)c(OC)c2)o1	-12	-2	0.7	-5	2.5	.	.	.	-1	12
CCn1nc(NC(=O)COC)c2cc3cc(C)ccc3nc21	16	0	0.2	-4	-0.8	1	2	-0.8	-7	0

# Going on with the list:
SMILES	ALR H2O2 inh	Beta cell apopt	Bfl-1 A1 inh	T cruzi repl	LANA-H2A inh	Ecoli rRNA inh	Ecoli rRNA inh OD600	Ecoli rRNA inh RFP	Calb FLC	Beta2AR agonist
O=C(CCC(=O)OCC(F)(F)C(F)F)NCc1ccccc1	3	-2	0.2	-25	1.0	.	.	.	-1	2
O=C(N/N=C/c1cc([N+](=O)[O-])ccc1O)c1ccncc1	-2	-1	-2.6	-2	1.3	2	2	2.3	1	-6
CN(CC(=O)Nc1cccnc1)S(=O)(=O)c1ccccc1	-6	-4	0.3	2	2.5	.	.	.	-3	-9
Cc1nc2c(ccc3nc(NC(=O)c4ccc(S(=O)(=O)N(C)C)cc4)sc32)s1	-4	2	0.8	20	-4.9	2	12	13	-3	5
CCOC(=O)c1[nH]c2c(c1-c1ccc(OC)cc1)C(=O)CC(c1ccc(OC)c(OC)c1)C2 (configuration not stated)	-15	6	1.0	10	-2.5	-6	-7	0.7	12	-7
CCc1ccc(NS(=O)(=O)c2ccc3c(c2)oc(=O)n3C)cc1	.	7	0.1	-4	-1.9	-7	-3	-1.8	-5	-30
Cc1ccc(N(CC(=O)NN=C2CCN(C)CC2)S(=O)(=O)c2ccccc2)c(C)c1	7	0	0.4	-2	0.9	.	.	.	1	2
O=C(Nc1cc(F)cc(F)c1)c1ccc(NCCc2ccccc2)c([N+](=O)[O-])c1	-3	7	0.0	-8	-7.1	.	.	.	-1	-3
COc1ccccc1C(=O)Oc1ccc2c(c1)O/C(=C\c1ccncc1)C2=O	-4	-4	0.0	-10	7.9	10	-1	-5.7	-2	10
COC(=O)c1ccc2nc(NC(=O)C(C)C)sc2c1	23	-3	-4.7	45	-5.6	-7	-12	-1.0	-16	-4

# In the list so far, two have fluorine.
SMILES	ALR H2O2 inh	Beta cell apopt	Bfl-1 A1 inh	T cruzi repl	LANA-H2A inh	Ecoli rRNA inh	Ecoli rRNA inh OD600	Ecoli rRNA inh RFP	Calb FLC	Beta2AR agonist
O=C(CCC(=O)OCC(F)(F)C(F)F)NCc1ccccc1	3	-2	0.2	-25	1.0	.	.	.	-1	2
O=C(Nc1cc(F)cc(F)c1)c1ccc(NCCc2ccccc2)c([N+](=O)[O-])c1	-3	7	0.0	-8	-7.1	.	.	.	-1	-3

# Full records, looked up by structure. Order of values: ALR H2O2 inh	Beta cell apopt	Bfl-1 A1 inh	T cruzi repl	LANA-H2A inh	Ecoli rRNA inh	Ecoli rRNA inh OD600	Ecoli rRNA inh RFP	Calb FLC	Beta2AR agonist
# Listed for COc1ccccc1C(=O)Oc1ccc2c(c1)O/C(=C\c1ccncc1)C2=O : -4	-4	0.0	-10	7.9	10	-1	-5.7	-2	10
# Listed for CCn1nc(NC(=O)COC)c2cc3cc(C)ccc3nc21 : 16	0	0.2	-4	-0.8	1	2	-0.8	-7	0

# (listing goes on)
SMILES	ALR H2O2 inh	Beta cell apopt	Bfl-1 A1 inh	T cruzi repl	LANA-H2A inh	Ecoli rRNA inh	Ecoli rRNA inh OD600	Ecoli rRNA inh RFP	Calb FLC	Beta2AR agonist
Cc1ccc(CNC(=O)CCS(=O)(=O)c2ccc3c(c2)oc(=O)n3C)cc1	-10	-1	0.9	2	-1.8	6	13	-1.1	-6	-7
CCCNC(=O)NC(=O)COc1c(F)c(F)cc(F)c1F	.	-4	0.3	-32	.	.	.	.	-1	8
COCCCn1c(SCC(=O)Nc2ccc(C)cc2)nc2ccccc2c1=O	4	5	0.7	11	2.5	8	2	-1.0	13	-31
C[C@@H]1CC=C[C@H]2[C@H]1C(=O)N(Cc1ccccc1)[C@H]2c1ccc(-c2ccc(N(C)C)cc2)cc1F	.	4	-1.6	37	-1.1	8	8	-5.8	-2	-1
Fc1cccc(Cl)c1CSC1=NCCS1	2	7	0.3	-18	0.0	2	-3	-2.2	-18	3
Cc1ccc2nc(Nc3ccc(Cl)cc3)c3nncn3c2c1	-6	-8	0.8	6	5.2	2	9	-1.7	51	2
Cc1ccc(CC(NC(=O)c2ccccc2)C(=O)NC(CC(C)C)C(=O)O)cc1 (configuration not stated)	-5	2	-0.4	-10	-2.4	-5	4	-1.6	-3	6
O=[N+]([O-])c1cccc(-c2ccc(CN3CCN(c4ccccc4)CC3)o2)c1	14	-6	0.4	-12	-1.7	-4	-13	-0.2	-5	3
COCCNC(=O)CCCn1c(=O)c2cc(OC)c(OC)cc2n(CC(=O)Nc2ccc(F)cc2)c1=O	-35	1	1.2	-11	3.0	12	2	-0.6	-2	-5
Cc1cc(N/C=C/C(=O)c2ccccc2)ccc1Br	2	6	-6.7	11	-2.4	15	13	-1.2	2	2
CCN(CC)S(=O)(=O)c1cccc(NC(=O)COC(=O)CCC(=O)c2cccs2)c1	-4	-2	-0.1	-3	1.8	.	.	.	-6	0
O=C1C(Cc2ccccc2)Nc2ncnc(N3CCc4ccccc4C3)c2N1Cc1ccc(Cl)cc1 (configuration not stated)	-3	17	-1.0	43	-3.5	.	.	.	13	10
CC(=O)c1ccc([N+](=O)[O-])c(CS(=O)(=O)c2ccccc2)c1	-1	4	0.4	2	4.7	-14	-25	-4.9	-2	-18
O=[N+]([O-])c1ncccc1OCc1ccc(Cl)c(Cl)c1	6	10	-0.6	23	-2.8	-8	-4	-2.0	-8	1
Cc1c(C(=O)OCC(=O)N2C(C)CCCC2C)oc2ccccc12 (configuration not stated)	0	1	0.5	3	1.9	-31	-30	-7.9	-13	-3
CC(NC(=O)c1ccc(C23CC4CC(CC(C4)C2)C3)cc1)C(=O)O (configuration not stated)	.	2	0.6	-12	-0.9	-30	-47	8.9	-27	1
C=CC[C@H](CC(=O)NCCO)C(=O)N[C@H](COC(=O)[C@@H](CC=C)CC(=O)OC(C)(C)C)Cc1ccccc1	-2	-3	0.1	.	2.6	-1	-6	4.8	.	-10
O=[N+]([O-])c1ccc(SCCc2ccccn2)cc1	-9	2	-3.7	31	-1.7	-16	-14	-3.0	5	-12
CC1CCN(c2nncc3ccccc23)CC1	7	3	0.3	11	-2.0	-7	-9	-4.1	-16	4
CC1CCCN(C(C(=O)NC2CCCCC2)c2cc3c(cc2[N+](=O)[O-])OCO3)C1 (configuration not stated)	3	-2	0.0	-1	-3.8	-28	-32	-12	9	1
O=c1cc(-c2ccccc2)c2cc(Cl)ccc2[nH]1	-5	-5	-0.6	1	0.1	-12	-10	1.2	-1	9
Cc1ccc(NC(=O)C2CCCN2C(=O)Oc2ccccc2)c(C)c1 (configuration not stated)	1	4	-0.1	-1	0.6	-1	1	1.4	-25	1
Cc1cc(C)cc(C(N)=Nc2cccc(C#N)c2)c1	-11	3	-0.3	6	3.0	1	6	6.4	1	5
Cc1ccc(CNC(=O)C2CC(c3cccc([N+](=O)[O-])c3)=NO2)o1 (configuration not stated)	-11	-6	-0.7	-10	0.9	13	13	2.5	20	-14
CC(=O)Nc1ccc(S(=O)(=O)N(Cc2ccccc2)c2ccccn2)cc1	-3	8	1.1	2	3.1	-8	-9	0.1	-6	-4
N#Cc1ccc(NC(=O)Cn2cnc(S(=O)(=O)N3CCOCC3)c2)cc1	-5	-2	0.5	-24	1.6	.	.	.	3	-5
Cc1ccnn1Cc1cc(C(=O)O)c2ccccc2n1	-5	-2	0.5	-3	-1.3	12	18	-1.8	-3	-7
COc1ccc(C)cc1NC(=O)C(OC(=O)C1=NNC(=O)CC1)c1ccccc1 (configuration not stated)	-2	-5	0.8	.	-4.0	3	1	-0.4	.	-1
CCOC(=O)NC(Nc1nnc(SCC)s1)(C(F)(F)F)C(F)(F)F	-2	-14	0.6	-8	0.3	.	.	.	5	0
COc1cc(NC(=O)COc2ccccc2)ccc1NC(=O)c1ccco1	-1	-5	-0.4	-11	-0.6	4	9	1.2	-8	-14
CCN1CC(c2ccccc2)C(c2ccc(Cl)cc2)=N1 (configuration not stated)	95*	-2	-0.3	5	1.2	-17	-24	-8.0	-2	-5
Cc1ccc(-n2cc(CN3CCC(CO)(Cc4ccccc4)CC3)cn2)cc1	-8	-7	0.9	37	2.8	7	4	5.7	-23	.
Cc1ccc2c(c1)C1C3CCC(C3)C1S(=O)N2 (configuration not stated)	-59	-11	0.2	-2	-1.9	-4	-3	-3.4	-5	-1
Cn1c(=O)n(C)c2cc(NS(=O)(=O)c3ccc(C(C)(C)C)cc3)ccc21	-6	49	-1.1	5	-1.7	-20	-25	-4.1	3	-6

# Only part of the results is shown; rates above refer to the full screens.
